High-throughput results from PubChem.
H5N1 antiviral: MDCK cell protection from H5N1 avian flu. cytopathic effect, luminescence, 72 h; hits give high values; no value below 0 was filed and about half of the inactive calls have no number; reference of the scale not given here. inhibition, % at 50 µM. hit rate 0.07% among 96,000; in the data active = inhibition above about 25%
Starred values were filed as active, the others as inactive; i = inactive. This is a subset. The share of hits here may be higher or lower than overall.

SMILES	H5N1 antiviral
CC(C)n1c(SCCCc2ccccc2)nc2c1c(=O)[nH]c(=O)n2C	3.3
COc1ccccc1N(CCC#N)C(=O)CSc1ccc2c(c1)OCCO2	i
CCOC(=O)C1NC(=O)CC1c1ccccc1 (stereo unspecified)	i
CCCCOC(=O)CCn1c(=S)oc2ccccc21	i
O=C(Nc1nc(-c2ccc(S(=O)(=O)N3CCCCCC3)cc2)cs1)c1cccs1	i
Cc1occc1C(=O)NC1CCCCCC1	6.5
Cc1noc(C)c1COC(=O)C1CC(O)CN1S(=O)(=O)c1ccc(Cl)cc1 (stereo unspecified)	i
CCn1c(C)[n+](CCCS(=O)(=O)[O-])c2cc(Cl)c(Cl)cc21	0.5
O=C(Nc1nc(COc2ccccc2)cs1)C12CC3CC(CC(C3)C1)C2	i
N#Cc1ccccc1Cn1cc(C(=O)c2cccs2)c2ccccc21	5.0
CC1(C(=O)O)Sc2[nH]c(=O)sc2C2c3ccccc3OC(=O)C21 (stereo unspecified)	i
O=C(COc1ccccc1Cl)NCCCN1CCOCC1	1.1
CC1Cc2ccccc2N1c1ncnc2c1nnn2Cc1ccccc1 (stereo unspecified)	0.1
O=C(OCC(=O)c1ccc[nH]1)c1ccc(S(=O)(=O)N2CCCCCC2)cc1	i
CN(C)c1nc(N)nc(Cn2ccnc2)n1	i
CCOC(=O)c1ccccc1N/C=C1\CCCC1=O	0.7
Cc1c(Cl)cccc1Nc1nc(N)nc(CSc2ncccn2)n1	i
CCOc1cc(/C=C(\C#N)c2[nH]nc(N)c2C#N)ccc1O	3.1
CCOc1ccc(Oc2ccc(-c3nnc(-c4ccccc4)o3)cc2[N+](=O)[O-])cc1	i
COC(=O)C1=C(Cn2cnc3ccccc32)NC(=O)NC1c1cc(C)ccc1C (stereo unspecified)	i
Cc1ccccc1-c1nc2sc(-c3ccccc3)cc2c(=O)o1	i
COc1ccc(S(=O)(=O)N(C)CC(=O)N2CCN(c3ccc(F)cc3)CC2)cc1OC	i
CC1CCCCN1CC(=O)Nc1ccc(Oc2ccccc2)cc1 (stereo unspecified)	i
CCOC(=O)c1ccc2nc(C)c3c(c2c1)OC(C)C3 (stereo unspecified)	i
Cc1ccc(-c2noc(CN(C(=O)C(c3ccccc3)c3ccccc3)C(C)C)n2)cc1	i
CC(C)C(C(=O)Nc1ccc(S(=O)(=O)N2CCOCC2)cc1)N1C(=O)c2ccccc2C1=O (stereo unspecified)	1.6
CCCCCC(=O)N1CCCC(c2nc(-c3ccc(OC)cc3)no2)C1 (stereo unspecified)	0.3
Cc1onc(-c2c(Cl)cccc2Cl)c1C(=O)NCC1CCCO1 (stereo unspecified)	1.1
O=C(Cn1nnc(-c2ccccc2F)n1)NCCc1ccccc1	0.2
Cc1cc(/C=C(\C#N)C(=O)NCc2ccco2)c(C)n1C1CCCC1	0.6
Cn1nccc1C(=O)Nc1ccccc1C(=O)O	0.7
CCOC(=O)CSc1nnc(CNC(=O)c2ccccc2OC)n1-c1ccc(OC)cc1	0.2
Cc1cccc(OCCCc2c(C)n[nH]c2C)c1	1.2
COC(=O)c1c(NS(=O)(=O)Cc2ccccc2)sc2c1CCCC2	0.7
O=C(NC1CCCCC1)c1ccc(S(=O)(=O)N2CCCCC2)cc1	4.4
CCC(=O)c1cccc2c1N=CC1=C(CC(C)(C)CC1=O)N2	i
COc1ccc2c(c1)CC/C(=C\c1ccc(OC)c(Cn3cccn3)c1)C2=O	0.3
COc1ccccc1CNC(=O)COC(=O)C1=COCCO1	0.0
NC(=O)C1C(c2ccccc2)=C1c1ccccc1	0.3
O=c1c2ccccc2c(/C=N/n2cnnc2)c(O)n1-c1ccccc1	0.6
CC1CN(CC(O)COc2ccc(C(=O)c3ccccc3)cc2)CC(C)O1 (stereo unspecified)	0.7
CCN(CC)S(=O)(=O)c1cc(C(=O)NC2CCCCC2)ccc1C	0.4
CC(C)N1C(=O)/C(=C/C=C/c2ccco2)C(=O)N(Cc2ccco2)C1=O	16
CCCCCN(C(=O)NC(=O)Nc1ccccc1OC)S(C)(=O)=O	i
CCOC(=O)CCS(=O)(=O)c1ccc(-c2ccc(S(=O)(=O)CCC(=O)OCC)cc2)cc1	1.7
CCCn1c(C(O)c2ccc(OCC)cc2)nc2ccccc21 (stereo unspecified)	0.9
CC1=CC(=O)C=C(C)C1=NOS(=O)(=O)c1ccccc1	2.2
COC(=O)CNC(=O)C(NC(=O)c1ccc(Cl)cc1)C(C)C (stereo unspecified)	i
CCn1c(-c2cc3ccccc3cc2O)n[nH]c1=S	0.4
O=C(C1CCCCC1)N(Cc1nc2sc3c(c2c(=O)[nH]1)CCCC3)Cc1cccs1	0.4
Cc1ccc(Cl)cc1N1CCN(Cc2nnnn2C2CCCCC2)CC1	i
O=c1[nH]cnc2nn(-c3ccccc3)nc12	i
O=C(Cn1ccc2ccccc2c1=O)NCCC(=O)N1CCN(c2cccc(Cl)c2)CC1	0.3
COCC(=O)N1CCCN(c2nc3c(C)cccc3cc2C#N)CC1	0.3
CCc1ccc(CNC(=O)CCc2nc(-c3cccs3)no2)cc1	2.0
Cc1ccc(C(=O)NNc2nc3ccccc3nc2C(F)(F)F)cc1	1.1
CCN(CC)CCn1c(=S)[nH]c2cc3c(cc2c1=O)OCO3	2.1
COc1ccc(S(=O)(=O)N(C)CC(=O)NCc2cccnc2)cc1	0.1
Fc1ccc(Cn2nnc(-c3ccc(CN4CCOCC4)cc3)n2)cc1	0.2
CC(C)NC(=O)Cn1cnc2c1c(=O)n(C)c(=O)n2C	0.7

Shown with bars between the fields: entries from further up.
Compound | H5N1 antiviral
O=c1[nH]cnc2nn(-c3ccccc3)nc12 | i
O=C(Cn1ccc2ccccc2c1=O)NCCC(=O)N1CCN(c2cccc(Cl)c2)CC1 | 0.3
COCC(=O)N1CCCN(c2nc3c(C)cccc3cc2C#N)CC1 | 0.3
CCc1ccc(CNC(=O)CCc2nc(-c3cccs3)no2)cc1 | 2.0
Cc1ccc(C(=O)NNc2nc3ccccc3nc2C(F)(F)F)cc1 | 1.1
CCN(CC)CCn1c(=S)[nH]c2cc3c(cc2c1=O)OCO3 | 2.1
COc1ccc(S(=O)(=O)N(C)CC(=O)NCc2cccnc2)cc1 | 0.1

Following part
SMILES	H5N1 antiviral
CN(Cc1nc2ccccc2c(=O)[nH]1)CC(O)COCc1ccco1 (stereo unspecified)	0.2
O=C(Nc1cccc2nsnc12)c1ccc(F)cc1	i
Cc1c(NC(=O)CCCCCN2C(=O)C3C4C=CC(C4)C3C2=O)c(=O)n(-c2ccccc2)n1C (stereo unspecified)	i
C/C(Cl)=C/CC1(CN2CCCC2=O)C(=O)NC(=O)NC1=O	i
C=C1N2CCC(CC2)C1(O)c1ccc(C)cc1 (stereo unspecified)	i
COc1cc(OC)cc(C(C)=O)c1	1.9
CC(C(=O)c1ccccc1)n1c(N2CCOCC2)nc2c1c(=O)n(C)c(=O)n2C (stereo unspecified)	1.1
CCOC(=O)CSc1nnc([C@H](Cc2ccccc2)NC(=O)OC(C)(C)C)o1	1.7
CC1=C(C(N)=O)C(c2ccc3c(c2)OCO3)n2nc(-c3cccc(C)c3)nc2N1 (stereo unspecified)	i
Cc1csc(NC(=O)c2cc3c(s2)-c2ccccc2OC3)n1	i
COc1ccc(OC)c(S(=O)(=O)N2CCC(C(=O)Nc3cccc(C)c3)CC2)c1	0.2
O=C(Nc1nnc(C(F)(F)F)s1)c1ccc(N2C(=O)C3C4C=CC(C4)C3C2=O)cc1 (stereo unspecified)	0.4
C=CCn1c(COc2ccccc2)nnc1SC(C)C(=O)N/N=C/c1cc(Cl)ccc1O (stereo unspecified)	i
CN1CCN(S(=O)(=O)c2ccc3c4c(cccc24)C(=O)N3)CC1	1.3
c1ccc2c(c1)NC(CN1CCOCC1)CO2 (stereo unspecified)	i

Pulled by compound from the entries so far (2):
SMILES	H5N1 antiviral
NC(=O)C1C(c2ccccc2)=C1c1ccccc1	0.3
CCOC(=O)C1NC(=O)CC1c1ccccc1 (stereo unspecified)	i

Back to the main list with the three entries that preceded the break.
SMILES	H5N1 antiviral
C=CCn1c(COc2ccccc2)nnc1SC(C)C(=O)N/N=C/c1cc(Cl)ccc1O (stereo unspecified)	i
CN1CCN(S(=O)(=O)c2ccc3c4c(cccc24)C(=O)N3)CC1	1.3
c1ccc2c(c1)NC(CN1CCOCC1)CO2 (stereo unspecified)	i
Cc1c2cnn(-c3ccccc3)c(=O)c2c(C)n1CCCC(=O)N1CCN(C)CC1	1.4
COc1cc(Cl)cc(NC(=O)CCN2CCN(C)CC2)c1	0.1
CC(C)(C)NC(=O)NC(=O)COC(=O)c1cc(=O)[nH]c2ccccc12	1.2
C=CCn1c(C)cc(C(=O)CSc2nnc3c(Cl)cc(Cl)cn23)c1C	3.1
Cc1ccc2[nH]c(=O)c(CN(Cc3ccco3)S(=O)(=O)c3c(C)ccc4nsnc34)cc2c1	i
COc1ccc(N2CCN(CCNS(=O)(=O)c3cccc4nsnc34)CC2)cc1	0.6
COc1cc(/C=C(/NC(=O)c2ccccc2Cl)C(=O)O)cc(OC)c1OC	i
CCOC(=O)N1CCN(C(=O)CSc2nc(-c3cccc(C)c3)ns2)CC1	i
CCc1c(C)c2ccc(O)c(CN(C)C)c2oc1=O	0.1
CN(C)S(=O)(=O)c1ccc(C(=O)Nc2ccccc2F)cc1	i
O=C(NCC(=O)N(Cc1cccs1)C(C(=O)NC1CCCC1)c1ccco1)c1cccs1 (stereo unspecified)	0.2
COCCNC(=O)CN(C(=O)CCC(=O)Nc1cc(C)on1)c1ccccc1C	0.0
COc1ccc(OC)c(NC(=O)C(Sc2ccccc2)c2ccccc2)c1 (stereo unspecified)	i
CCN(CC)S(=O)(=O)c1ccc(C(=O)NCc2nnc(SCC(=O)OC)n2C)cc1	i
CCS(=O)(=O)N1Cc2ccccc2CC1C(=O)OCC(=O)Nc1ccc(C)cc1 (stereo unspecified)	2.1
COc1ccc(OC)c(S(=O)(=O)N2CCN(c3ccccn3)CC2)c1	2.0
CC1=CCC(C(=O)N/N=C/c2cccs2)C(c2ccc(F)cc2)C1 (stereo unspecified)	0.1
CCOc1ccc(NC2=NC(C)(C)N=C(N)N2)cc1	i
COc1ccc(C(CNC(=O)c2cccnc2SC)N2CCOCC2)cc1 (stereo unspecified)	0.3
CCC(=O)c1cc2c(cc1NC(=O)C(C)C)OCCO2	0.5
O=C(NCc1ccncc1)C1COc2ccccc2O1 (stereo unspecified)	0.1
COc1ccc(CC(=O)NNC(=O)c2ccc(SCc3cc(F)ccc3F)c([N+](=O)[O-])c2)cc1	i
CC(=O)c1cccc(NC(=O)Cc2cccs2)c1	i
CCn1c(C(O)c2ccc3c(c2)OCO3)nc2ccccc21 (stereo unspecified)	0.0
CC(=O)Nc1ccc(S(=O)(=O)NC(=O)C23CC4CC(CC(C4)C2)C3)cc1	0.9
CCOC(=O)C(CSCC(=O)c1ccc(Br)cc1)NC(=O)OC(C)(C)C (stereo unspecified)	0.3
CCOc1cccc(Oc2ccc(C(F)(F)F)cn2)c1	i
Cc1cc(C(F)F)n2nc(C(=O)Nc3cccc(C(F)(F)F)c3)nc2n1	i
CCOc1ccccc1OCc1nn2c(-c3ccc(C)cc3)nnc2s1	0.7
CC(=O)NS(=O)(=O)c1ccccc1	i
CCOC(=O)N1CCN(CC(=O)Nc2ccc(Oc3ccccc3)cc2)CC1	i
CNc1cc(C(F)(F)F)nc(-c2ccccn2)n1	i
C=CCN(CC(=O)Nc1c(C)cccc1CC)C(=O)SCCC	0.7
CCNc1oc(COc2ccccc2F)nc1C#N	0.9
CCN1CCN(Cc2c(OC)ccc3ccccc23)CC1	0.2
CC1C(c2ccccc2)N(C)CCC12NC(=O)NC2=O (stereo unspecified)	0.4
Cc1noc(C)c1S(=O)(=O)NCc1ccc2c(c1)OCO2	2.0
CC1CCN(c2nc3c(c(=O)[nH]c(=O)n3C)n2CCSc2nc3ccccc3o2)CC1	0.6
C=CCn1c(SCC(=O)Nc2ccccc2OC)nnc1-c1ccco1	i
CCOc1ccc2[nH]c(=O)c(C(c3nnnn3C3CCCCC3)N3CCN(C)CC3)cc2c1 (stereo unspecified)	0.5
CC(=O)c1ccc(Nc2ncnc3c2oc2ccccc23)cc1	0.0
CN1CCN(Cc2c(O)ccc3c(-c4ccccc4)cc(=O)oc23)CC1	i
CN(C(=S)NC(=O)C1(C)CC1(Cl)Cl)c1ccccc1 (stereo unspecified)	0.2
COC(=O)c1c(C(=O)NCc2ccccc2)ncn1CC(O)COc1ccccc1 (stereo unspecified)	i
COc1ccc(/C=C2\N=C(c3c(-c4ccccc4)noc3C)OC2=O)cc1OC	0.3
Cc1ccc(N/C=C(/C#N)c2ccsc2)cc1	i
CCOC(=O)N1CCC(NC(=O)c2ccc3c(c2)N(Cc2ccccc2)CCS3)CC1	0.3
O=C(CCS(=O)(=O)Cc1ccccc1)N1CCc2ccccc2C1	i
CC(=O)Nc1cc(S(=O)(=O)C(F)(F)F)ccc1Cl	i
Cc1cc(NCCO)nc(N2CCOCC2)n1	0.2
O=c1c2cc(F)ccc2[nH]c(=S)n1CCCN1CCOCC1	0.9
OCCN1CCOCCN(CCO)CCN(CCO)CC1	0.6
Cc1cc2c(c(=O)n1Cc1cccnc1)C(c1ccc(F)cc1)C(C#N)=C(N)O2 (stereo unspecified)	i
Cc1sc2ncnc(Oc3ccc(-n4ccnc4)cc3)c2c1C	i
Cc1ccc(C(=O)OCC(=O)Nc2ncc(C(F)(F)F)cc2Cl)cc1NC(=O)c1ccco1	1.4
COc1ccccc1C(=O)NC(=Nc1nc2ccccc2o1)NC(=O)c1ccccc1OC	1.4
COC(=O)COc1ccc(S(=O)(=O)NCc2cccnc2)cc1	0.0
CCOC(=O)C1=C(CSc2nccn2C)NC(=O)NC1c1cc(C)ccc1C (stereo unspecified)	0.1
CN(C)S(=O)(=O)c1ccc2[nH]cc(/C=C/c3nc4ccccc4c(=O)n3-c3ccccc3)c2c1	0.9
